VDR inhibitor: blocks the human vitamin D receptor; P11473; VDR-SRC2-3 peptide fluorescence polarization, 2 h; Potency, µM, for inactives: max response, negative = inhibition, actives largely listed as inhibitors; actives 0.93% (n = 400,000); active means well fitted inhibition curve with a large enough effect; inconclusive means small, poorly fitted or top-dose-only effect, or another doubt; inactive means no such curve, though single readings can be large or run the other way; further: series mostly up to about 120 µM
Target sequence (P11473 whole entry, looked up): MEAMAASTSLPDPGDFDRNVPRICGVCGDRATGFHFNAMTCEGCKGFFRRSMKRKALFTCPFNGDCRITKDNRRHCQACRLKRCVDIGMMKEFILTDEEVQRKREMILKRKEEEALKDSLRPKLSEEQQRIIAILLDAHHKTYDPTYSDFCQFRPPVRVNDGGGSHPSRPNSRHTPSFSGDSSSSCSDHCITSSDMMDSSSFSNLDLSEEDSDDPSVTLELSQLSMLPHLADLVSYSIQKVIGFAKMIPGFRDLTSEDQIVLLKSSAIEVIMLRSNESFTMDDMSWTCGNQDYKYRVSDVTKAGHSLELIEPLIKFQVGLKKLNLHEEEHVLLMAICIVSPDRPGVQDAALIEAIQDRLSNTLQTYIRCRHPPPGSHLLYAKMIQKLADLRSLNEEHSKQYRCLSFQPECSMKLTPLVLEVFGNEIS
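VDR–SRC2-3 interaction, FP format. Cmpds 23 nl via pintool, brief spin, 2 h ambient incubation.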
* = called active by the depositor; ? = inconclusive; & = joins results of further samples. On the % scale 0 is the no-effect control and ±100 the full control effect; potency means the concentration at half of the fitted maximal effect.

no.	structure	VDR inhibitor
1	Cc1cc(NC(=O)CCC(=O)N(c2ccc(F)cc2)C(C(=O)NC2CCCC2)c2ccc(C)o2)no1 (configuration not stated)	-12%
2	COc1ccc(N2CCN(CC(=O)Nc3cccc(S(=O)(=O)N4CCOCC4)c3)CC2)cc1	7%
3	N#Cc1c(NC(=O)c2cc(C3CC3)on2)sc2c1CCC2	?
4	S=C(NCCc1ccccc1)Nc1c(Cl)cccc1Cl	-20%
5	CCOC(=O)c1cc(C#N)c(N2CCCCC2)nc1-c1ccccc1	-10%
6	CCOC(=O)C1=C(COC(=O)CCc2ccccc2)NC(=O)NC1C (configuration not stated)	-20%
7	Cc1ccc2c(CN3CCCCC3)cc(=O)oc2c1C	29%
8	CC(=O)N1CCc2cc(S(=O)(=O)NCC(=O)NCc3ccccc3Cl)ccc21	25%
9	O=C(CNS(=O)(=O)c1ccccc1F)NNC(=O)c1ccc(Br)cc1	-5%
10	CCOc1nc(N2CCCCC2)nc(-n2cc(-c3ccccc3)nn2)n1	-5%
11	Cc1ccc(Nc2c(-c3ccc(C)o3)nc3ncccn23)cc1	-7%
12	COc1ccc(N(CC(=O)NC2CCCCC2)C(=O)CCC(=O)Nc2nc(C)cs2)cc1OC	5%
13	O=C(C1CCCCC1)N1CCN(c2ccccc2F)CC1	-29%
14	COc1cc(S(=O)(=O)Nc2cccnc2)ccc1F	-8%
15	c1ccc2c3c([nH]c2c1)CCNC3	-6%
16	Cc1ccc(C(c2ccccc2)c2c(C)[nH]c3ccccc23)s1 (configuration not stated)	-1%
17	COc1ccc(C(=O)CSc2nccc(=O)[nH]2)cc1	6%
18	CC(C)(C)c1ccc(NC(=S)NCc2cccs2)cc1	-5%
19	CCCCCC(O)CCC(=O)NNC1=CC(=O)CC(C)(C)C1 (configuration not stated)	-5%
20	S=C(c1ccc(-c2ccccc2Cl)o1)N1CCOCC1	-62%
21	Cc1ccc(S(=O)(=O)N2CCC(C(=O)NNC(=O)c3ccc(F)cc3)CC2)cc1	-24%
22	CCCS(=O)(=O)Nc1ccc2cn[nH]c2c1	8%
23	O=C(Nc1ccc2c(c1)OCCO2)c1coc2ccccc2c1=O	-10%
24	Cc1ccc(COn2c(-c3ccc(Cl)cc3)nc3ccc([N+](=O)[O-])cc32)cc1	5%
25	COc1ccc(NC(=O)C2C(=O)N(C)C3(C)CC2c2ccccc2O3)cc1 (configuration not stated)	17%
26	CCn1ccnc1C(O)c1cccc2ccccc12 (configuration not stated)	26%
27	CCCCCCC(C)n1[nH]c(=O)c2c(C)cc(=O)[nH]c21 (configuration not stated)	-6%
28	COCC(=O)N=Nc1c(O)[nH]c2ccccc12	-8%
29	O=C(O)c1ccc(Cn2cnc3sc4c(c3c2=O)CCCC4)cc1	12%
30	O=C(COc1ccccc1C(=O)NCC1CCCO1)Nc1ccc(Cl)cc1Cl (configuration not stated)	-8%
31	Cc1ccc(-c2nnc3n2CCCCC3)cc1	0%
32	Cc1cccc(CN2C(=O)N(c3ccc(C(C)C)cc3)S(=O)(=O)c3ccccc32)c1	17%
33	Cc1nnc(SCCCCSc2nnc(C)c(=O)[nH]2)[nH]c1=O	-5%
34	O=C(COC(=O)CCSc1ccccc1)Nc1ccccc1Br	4%
35	Cc1ccc(-n2nc3ccc(NC(=O)COc4ccccc4)cc3n2)cc1Cl	7%
36	CC(C)C(NC(=O)CNC(=O)OC(C)(C)C)C(=O)NCc1ccc(Cl)cc1 (configuration not stated)	12%
37	COc1cc(OC)c(OC)cc1CN1CCc2nc(N3CCN(c4ccccc4F)CC3)ncc2C1	-4%
38	Cc1cc(OCC(=O)OCC(=O)NCc2ccc3c(c2)OCO3)ccc1Cl	13%
39	COc1ccc(OCC(=O)N/N=C(\C)c2cccs2)cc1	-8%
40	NC(=O)c1cccc(N=Cc2cc(Cl)cc(Cl)c2O)c1	-8%
41	Cc1ccc(-n2ncc3c2CCCC3NC(=O)c2ocnc2C)cc1C (configuration not stated)	-21%
42	COc1cccc(C(c2cccc(OC)c2)c2ccccc2C(=O)O)c1	-12%
43	Cc1c(Cl)cccc1NC(=S)N(CCN(C)C)C(C)c1ccco1 (configuration not stated)	-15%
44	Nc1cc(N2CCCCCC2)c2nonc2c1[N+](=O)[O-]	0%
45	CSc1nnc(CCNS(=O)(=O)c2ccc(Br)cc2)n1C	-12%
46	CC1CCN(C(=S)c2cn(Cc3cccc(F)c3)c3ccccc23)CC1	2%
47	CCOC(=O)Nc1cc(C)ccc1OC	-5%
48	O=C(O)CCSc1nnnn1-c1ccccc1	26%
49	O=C(CNC(=O)c1ccco1)NCC(=O)OCc1ccc(Cl)cc1	-18%
50	COCc1nc2ccccc2n1Cc1ccccc1Br	-17%
51	COc1cc(S(=O)(=O)Nc2ncccc2C)c(OC)cc1Cl	24%
52	COc1ccc(N=C2S/C(=C\c3ccc(C)s3)C(=O)N2CC(C)C)cc1	-14%
53	COc1ccccc1CNC(=O)CCC(=O)N1Cc2ccccc2Oc2ncccc21	5%
54	CCc1nn(CC(=O)N2CCN(c3cccc(C(F)(F)F)c3)CC2)c(=O)c2cc3occc3n12	17%
55	O=C(Nc1ccc(OC(F)(F)F)cc1)c1cnc2n(c1=O)CCS2	7%
56	COc1cc(C(N)=O)cc(Br)c1OC	1%
57	CCOC(=O)C1CSC(CC(=O)Nc2ccc(Cl)cc2)C(=O)N1 (configuration not stated)	5%
58	Cc1ccc(S(=O)(=O)NCCCNC(=O)c2ccccc2)cc1	5%
59	Cn1cnnc1SCC(=O)Nc1ccc2nc(SCc3ccccc3Cl)sc2c1	-10%
60	COc1ccc(NC(=O)CCSCCc2ccccn2)cc1OC	16%

Continued.
no.	structure	VDR inhibitor
61	O=C(CNC(=O)c1ccccc1Cl)OCC(=O)N1CCc2ccccc21	7%
62	O=C(Nc1ccc(Cl)c(C(F)(F)F)c1)C(Cc1ccccc1)NS(=O)(=O)c1cccc2nsnc12 (configuration not stated)	-8%
63	COc1ccc(NC(=O)C(Cc2ccccc2)n2cccc2)cc1OC (configuration not stated)	-6%&-5%
64	CCOC(=O)NC(=O)C(=CNc1ccccc1OC)C(=O)NC(=O)OCC	-3%
65	Cc1ccccc1/C=N/n1c(COc2ccccc2)n[nH]c1=S	8%
66	COc1ccc(Cl)cc1C(=O)Nc1ccccc1N1CCN(C)CC1	-30%
67	CCOC(=O)N1CCN(S(=O)(=O)N2CCCC(C(=O)NCc3ccc(OC)cc3)C2)CC1 (configuration not stated)	-2%
68	CNC(=S)N(Cc1ccc(Cl)cc1)Cc1cccs1	4%
69	COc1ccc(N2C(=O)C3CCCN3C2c2ccc(F)cc2)cc1Cl (configuration not stated)	-1%
70	CCSc1nc2ccccc2n1C(=O)c1ccc(S(=O)(=O)N2CCCCC2)cc1	9%
71	O=C(COC(=O)C1CCCO1)Nc1nc(-c2ccc(F)cc2)cs1 (configuration not stated)	-13%
72	CCCCn1c(=O)[nH]c(=O)c2c1nc(-c1ccc(OC(F)F)c(OC)c1)n2C	10%
73	CCOC(=O)c1c(C)n(C)c2ccc(OC(=O)c3ccoc3)cc12	5%
74	CC(=O)Nc1nc(SCC(=O)NCc2ccc(F)cc2)[nH]c(=O)c1NC(=O)c1cccs1	-20%
75	O=C(O)Cc1csc(-c2cccc(F)c2)n1	14%
76	Cc1cnc(C(=O)Nc2cc(S(=O)(=O)N3CCOCC3)ccc2N2CCN(C)CC2)cn1	-9%
77	CCOc1ccc(OCCC(=O)OCC(=O)Nc2cccc(S(=O)(=O)N3CCCCC3)c2)cc1	6%
78	COc1ccc(S(=O)(=O)N(C)CC(=O)N2CCC(C(N)=O)CC2)cc1	-2%
79	CC1Cc2ccccc2C(=O)N1 (configuration not stated)	-14%
80	CNC(=S)N1N=C(c2ccc(OC)cc2)CC1c1ccc(N(C)C)cc1 (configuration not stated)	4%
81	O=C(NCc1ccccc1Cl)C1CCN(C(=O)c2sccc2-n2cccc2)CC1	-4%
82	N#Cc1cc(C(=O)c2cc(Br)ccc2O)cn(C2CC2)c1=O	14%
83	Cc1ccc(S(=O)(=O)N2CCN(C(=O)CCn3cncn3)CC2)cc1C	-14%
84	O=C(CCn1cccc1)NC1CCCc2ccccc21 (configuration not stated)	4%
85	CCOn1c(=O)c(=O)n(OC)c2ccccc21	4%
86	COC(=O)Cc1c(C)c2ccc(OCC(=O)N3CCC(C)CC3)c(C)c2oc1=O	-22%
87	O=C(NCCc1ccc(Cl)cc1)C1CCN(C(=O)N2CCOc3ccccc32)CC1	-18%
88	CCCCCCCCCCCCCCCC(O)C[N+](C)(C)CCO (configuration not stated)	18%
89	COc1cccc(NC(=S)NN=C2CCC(C(C)(C)C)CC2)c1 (configuration not stated)	-3%
90	COc1ccccc1CC(=O)N1CCCc2ccccc21	-1%
91	COc1ccc(S(=O)(=O)N(C)c2ccc(C(=O)N3CCCCC3)cc2)cc1	-2%
92	O=C(/C=C\Nc1ccc2c(c1)OCO2)c1ccccn1	-18%
93	O=C(COC(=O)CNC(=O)c1cccc(Br)c1)Nc1nnc(-c2ccccc2)o1	2%
94	COc1ccc(CCNC(C)=O)cc1	0%
95	CCCn1c(SCC(=O)N2CCCC(C)C2)nnc1-c1cccnc1 (configuration not stated)	-13%
96	CC(C)(CC(=O)O)Cc1nc(-c2ccc(Cl)cc2)no1	-18%
97	Cc1ccc(NC(=O)C(NCc2ccccn2)c2ccccc2)cc1 (configuration not stated)	-12%
98	CC1(C)CC2(CC(C)(C)N1)OC(=O)N1CCc3ccccc3C12C (configuration not stated)	-24%
99	O=C(c1ccc2ccccc2n1)N(CCO)Cc1ccccc1	-10%
100	CCc1nc2ccccc2c(C(=O)OCC(=O)NC(=O)c2cccn2C)c1C	-16%
101	CC1c2cccn2CCN1S(=O)(=O)c1ccc(F)cc1 (configuration not stated)	9%
102	COc1ccc(-c2csc(-c3ccc(C(=O)O)cc3)n2)cc1	-2%
103	Cc1cc(C(=O)OCC(=O)Nc2ccc(S(N)(=O)=O)cc2)c2ccccc2n1	1%
104	Nc1nonc1-n1nnc(C(=O)N/N=C/c2ccc(F)cc2)c1-c1ccc2c(c1)OCO2	-2%
105	CCC1(c2ccc(F)cc2)NC(=O)N(CC(=O)Nc2cc(C)on2)C1=O (configuration not stated)	1%
106	COC(=O)C1C(=O)NC(SC)=C(C#N)C1c1ccccc1 (configuration not stated)	7%
107	CC1=C(c2ccc(F)cc2)S(=O)(=O)NC1=NCc1ccccc1Cl	12%
108	Cn1c(CO)cnc1S(=O)(=O)Cc1ccc(Cl)cc1	-3%

Structural class: the compounds so far containing two or more sulfur atoms
no.	structure	VDR inhibitor
18	CC(C)(C)c1ccc(NC(=S)NCc2cccs2)cc1	-5%
33	Cc1nnc(SCCCCSc2nnc(C)c(=O)[nH]2)[nH]c1=O	-5%
45	CSc1nnc(CCNS(=O)(=O)c2ccc(Br)cc2)n1C	-12%
52	COc1ccc(N=C2S/C(=C\c3ccc(C)s3)C(=O)N2CC(C)C)cc1	-14%
59	Cn1cnnc1SCC(=O)Nc1ccc2nc(SCc3ccccc3Cl)sc2c1	-10%
62	O=C(Nc1ccc(Cl)c(C(F)(F)F)c1)C(Cc1ccccc1)NS(=O)(=O)c1cccc2nsnc12 (configuration not stated)	-8%
68	CNC(=S)N(Cc1ccc(Cl)cc1)Cc1cccs1	4%
70	CCSc1nc2ccccc2n1C(=O)c1ccc(S(=O)(=O)N2CCCCC2)cc1	9%
74	CC(=O)Nc1nc(SCC(=O)NCc2ccc(F)cc2)[nH]c(=O)c1NC(=O)c1cccs1	-20%

Next entries:
no.	structure	VDR inhibitor
109	O=C(CSc1ccc(Cl)cc1)Nc1ccc(C2SCCS2)cc1	-12%
110	O=C(c1cc2ccccc2oc1=O)N(Cc1ccco1)C1CCS(=O)(=O)C1 (configuration not stated)	11%
111	Cc1ccccc1-c1nnc(SCC(=O)N2CCCc3ccccc32)o1	2%
112	Cc1cccc(C)c1NC(=O)C1(NC(=O)C2CCCN2C(=O)OC(C)(C)C)CCCCC1 (configuration not stated)	1%
113	Cc1ccc(CNC(=O)c2oc3ccc(S(=O)(=O)N4CCOCC4)cc3c2C)cc1	7%
114	C[C@@H]1CC=C[C@H]2[C@H]1C(=O)N(Cc1ccccc1)[C@H]2c1ccoc1	?
115	O=C(c1cccc2ccccc12)C1CCCN(C(=O)CCN2CCCO2)C1 (configuration not stated)	-14%
116	CCN(C(=O)Cn1c(=O)n(CC2CCC(C(=O)NC)CC2)c(=O)c2sccc21)c1ccccc1 (configuration not stated)	2%
117	CCCn1cc(SCC(=O)Nc2nnc(C)s2)c2ccccc21	-22%
118	O=C1OCC=C1NNC(=O)c1cccnc1	-2%
119	Cc1ccc(NC(=O)C2CCC(CNc3c(N4CCC(C)CC4)c(=O)c3=O)CC2)cc1F (configuration not stated)	-10%
120	CCc1nc(SCC(=O)c2ccccc2)c2c(=O)n(C)c(=O)n(C)c2n1	-3%
121	CC1(C)SC(=S)N(/N=C/c2ccccc2O)C1N(O)C(=O)Nc1ccccc1 (configuration not stated)	12%
122	CCOC(=O)Cc1nnc(NC(=O)CC)s1	-10%
123	CCOC(=O)C(C)On1c(-c2ccc(Cl)cc2)nc2ccc([N+](=O)[O-])cc21 (configuration not stated)	5%
124	COc1cccc(OC)c1-c1nn2c(-c3ccccc3Cl)nnc2s1	6%
125	CN(CC(=O)NC(=O)NCc1ccccc1)Cc1ccc(Cl)c(Cl)c1	-6%
126	Cc1nn(-c2ccccc2)c2sc(C(=O)Nc3cccc(O)c3)cc12	6%
127	CC12CC3CC(C)(C1)CC(C(=O)Nc1nncs1)(C3)C2	5%
128	COc1c(N2CCN(C(=S)Nc3ccc(F)cc3)C(C)C2)c(F)cc2c(=O)c(C(=O)O)cn(C3CC3)c12 (configuration not stated)	9%
129	Cc1ccc(CNC(=O)c2ccc(N3CCc4ccccc43)c([N+](=O)[O-])c2)cc1	7%
130	CC(/C=N/NC(=O)c1nnn(-c2nonc2N)c1CN(C)C)=C\c1ccco1	6%

Assay outcomes deposited in PubChem BioAssay by National Center for Advancing Translational Sciences (NCATS).

This is a subset. The share of hits here may be higher or lower than overall.
